TRPML1 inh – human mucolipin-1 channel inhibition | Q9GZU1 | TRPML1-inducible cells, Ca2+ dye fluorescence, FDSS; hits give low values; inhibition of EC80 agonist-evoked calcium signal | activity change, negative = inhibition, % (no concentration beside the values) | 0.02% of 390,000 active | AID 624415; in the data active means activity change below about -50%; inconclusive means about -30% to -50%; inactive means above about -30%;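 note: stimulus is agonist 54-4 at its EC80 concentration; % is set by controls: 0 for no effect and ±100 for the full control effect; compound concentration not given in the record; the text of the record puts the active cut at -80%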
Target sequence (Q9GZU1 whole entry, looked up): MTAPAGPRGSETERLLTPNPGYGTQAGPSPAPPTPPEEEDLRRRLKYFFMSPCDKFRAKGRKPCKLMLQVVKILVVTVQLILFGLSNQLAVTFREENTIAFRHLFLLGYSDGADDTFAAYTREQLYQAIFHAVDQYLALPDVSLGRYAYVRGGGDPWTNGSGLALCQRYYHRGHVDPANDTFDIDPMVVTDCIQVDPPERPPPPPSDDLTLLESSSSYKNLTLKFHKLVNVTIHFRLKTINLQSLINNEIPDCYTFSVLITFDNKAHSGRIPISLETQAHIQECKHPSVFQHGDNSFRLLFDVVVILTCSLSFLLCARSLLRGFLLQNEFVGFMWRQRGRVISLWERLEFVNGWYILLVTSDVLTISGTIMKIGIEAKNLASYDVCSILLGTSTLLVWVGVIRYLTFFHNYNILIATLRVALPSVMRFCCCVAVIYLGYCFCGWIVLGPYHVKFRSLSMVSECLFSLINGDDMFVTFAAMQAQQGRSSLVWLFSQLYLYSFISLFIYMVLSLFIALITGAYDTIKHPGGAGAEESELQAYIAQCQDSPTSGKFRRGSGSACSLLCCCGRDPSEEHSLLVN
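Tet-induced TRPML1-DL cells loaded with Ca8 no-wash calcium dye were read kinetically on FDSS. Compound addition was followed by EC80 agonist 54-4 (4 uM final); inhibition was read over 110 s.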
TRPML1 ag – activates the human TRPML1 channel; TRPML1-expressing cells, Ca2+ dye fluorescence, FDSS; host cell line not named in the record; reference of the full effect not given here; activation, % (no concentration beside the values); 0.12% of 410,000 active; Q9GZU1; in the data active = activation above about 50%; inconclusive = about 30% to 50%; inactive = below about 30%; note: 0% is about no effect; the text of the record puts the active cut at 80%
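Kinetic FDSS Ca2+ read in Tet-induced TRPML1-DL cells (ABD Ca8 dye plus quencher, 45-90 min RT loading): baseline, then compound, then 110 s agonist window; EC80 agonist 54-4 at 4uM final added afterwards for a 110 s antagonist window.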
The depositor's hits bear a star. Not all compounds are listed; count on the stated rates, not on these rows.

SMILES	TRPML1 inh	TRPML1 ag
Cc1nn(CCCC(=O)NCc2ccc(OC(C)C)cc2)c(=O)c2c1sc1ccccc12	19.8	2.2
Cc1noc(-c2ccc(NC(C)c3ccccc3)c([N+](=O)[O-])c2)n1 (stereo not given)	5.6	0.0
Cc1onc(-c2ccccc2Cl)c1C(=O)Oc1ccc(Br)cc1	4.1	-0.2
Cc1ccc(-n2c(=O)c3c4c(sc3n(CC(=O)c3ccc(Cl)cc3)c2=O)CCC4)cc1C	-21.2	-0.8
CCn1cc(S(=O)(=O)c2ccc(Cl)cc2)c(=O)c2cc(F)c(N3CCOCC3)cc21	-11.3	-0.2
COc1ccc(CNC(=O)c2cc(Nc3ccccc3C)nc3ccccc23)cc1	3.8	1.4
COc1ccccc1OC(C)C(=O)Nc1c(C(=O)c2ccc(Cl)cc2)oc2ccccc12 (stereo not given)	-6.5	0.2
Cc1cc(C)cc(OCC(=O)N(Cc2cccs2)c2ccc(Cl)cc2)c1	-17.4	0.4
COc1ccccc1C(=O)NC1=NC(c2ccc(Br)cc2)CC(=O)N1 (stereo not given)	18.7	0.4
Cc1cc(F)ccc1NC(=O)c1c(C)oc2c1C1=NCCN1C=N2	-17.2	0.3
Cc1nc2ccn(Cc3ccco3)c(=O)c2cc1C(=O)N1CCN(c2ccc(F)cc2)CC1	-11.4	1.1
Cc1cccc(N2CCN(C(=O)c3cc4ccc5cccnc5c4[nH]3)CC2C)c1 (stereo not given)	-3.1	1.1
Cc1ccc(C(=O)c2cn(CC(=O)NCc3ccccc3Cl)c3nc(C)ccc3c2=O)cc1	6.0	0.6
Cc1ccc(CNC(=O)c2ccc3c(O)c(S(=O)(=O)c4ccc(Cl)cc4)c(=O)[nH]c3c2)cc1	-2.2	-0.1
CCN1CCN(C(=O)c2ccc3c(c2)N(Cc2c(F)cccc2Cl)C(=O)c2ccccc2S3)CC1	26.8	-0.6
CCOc1ccc(-c2cc3nc(C4CCN(C(=O)OC(C)(C)C)CC4)c(C(=O)Nc4cccc(C(F)(F)F)c4)cn3n2)cc1	22.7	-0.6
CCOC(=O)c1ccc(NC(=O)c2cn3c4c(ccc(Cl)c4c2=O)OC(C)C3)cc1 (stereo not given)	-5.3	-0.5
CCCCNC(=O)CSc1nc2ccccc2nc1Cc1ccccc1	10.8	1.6
COCCOC(=O)N1CCN(/[N+]([O-])=N/Oc2ccc([N+](=O)[O-])cc2[N+](=O)[O-])CC1	-3.5	2.5
COc1ccc(CNC(=O)c2ccc3c(c2)CCN3S(=O)(=O)c2ccccc2)cc1	-6.4	-0.2
COC(=O)c1ccc2c(c1)N(CC(=O)Nc1ccc(C)c(C)c1)C(=O)c1ccccc1S2	-8.5	4.5
COc1ccccc1-c1nnc(C2CCN(S(=O)(=O)c3ccccc3)CC2)o1	-8.6	0.3
CCOC(=O)c1cnc2ccc(C(=O)OC)cc2c1Nc1ccccc1CC	-4.4	1.1
CCc1cc(=O)[nH]c(SCc2nc(-c3ccccc3C)no2)n1	38.2	1.1
Cc1ccccc1CCNCc1c(C(=O)O)c(C)n(Cc2c(F)cccc2Cl)c1C	6.0	-1.1
Additional records
SMILES	TRPML1 inh	TRPML1 ag
CCc1ccc(NC(=O)CCS(=O)(=O)c2ccc3c(c2)oc(=O)n3C)cc1	17.3	-0.3
Cc1ccccc1C(=O)Nc1ccccc1-c1nc(-c2ccccc2)no1	-9.1	1.7
COc1ccc(C)cc1NS(=O)(=O)c1ccc2oc(=O)c3ncn(C)c3c2c1	-15.8	-0.7
CCN(CC)S(=O)(=O)c1ccc(NC(=O)c2c(C)oc3ncnc(N4CCOCC4)c23)cc1	-9.0	0.9
O=C1CS(=O)(=O)C2(C(=O)N(Cc3ccccc3Cl)c3ccccc32)N1c1ccc(F)cc1 (stereo not given)	-5.5	0.4
COc1ccccc1Nc1c2c(nc3ccc(NC(=O)c4ccc(N(C)C)cc4)cc13)CCCC2	-11.8	0.5
Cc1ccc(-n2nc(CO)c(C(=O)NCCc3ccccc3)n2)cc1C	10.2	2.5
COc1ccc(C(=O)c2oc3ccccc3c2NC(=O)COc2c(C)cc(C)cc2C)cc1	11.2	0.5
CSc1ccc(/C=C/c2nc3ccccc3n2S(=O)(=O)c2cccc(Cl)c2)cc1	11.6	-0.4
Cc1ccc(CNC(=O)c2ccc(CSCc3c(F)cccc3Cl)o2)cc1	-7.2	3.4
Cc1ccc(S(=O)(=O)CCC(=O)N2CCN(c3nc4c(C)c(Cl)ccc4s3)CC2)cc1	-16.0	-1.0
COc1ccc(OC)c(CCNC(=O)c2nn(C)c3c2CSc2ccccc2-3)c1	-2.6	0.8
CCc1ccc2occ(CC(=O)NCc3ccccc3)c2c1	6.9	1.5
CCOc1ccccc1NC(=O)CN1Cc2ccccc2C1=O	8.4	-0.2
Cc1cc(C)c2c(CC(=O)N(Cc3ccc(N(C)C)cc3)Cc3ccco3)coc2c1	-2.7	-0.2
Cc1ccc2[nH]c(CSc3nnc(NC(=O)c4ccc(Cl)cc4)s3)cc(=O)c2c1	-2.2	0.7
CCCCOc1ccc(CNC(=O)CCCN2C(=O)CSc3c2c(C)nn3-c2ccccc2)cc1	42.6	0.9
CN1CCN(c2ncc3c(n2)CCN(Cc2ccccc2Cl)C3)CC1	7.8	0.9
CCCCOc1ccc(Cn2c(=O)oc3ccc(C)cc32)cc1OC	17.5	5.6
CC1CCCN(S(=O)(=O)c2cc3c(cc2Cl)NC(=O)CO3)C1 (stereo not given)	-6.0	-0.9
O=C(c1cccc(Cl)c1)N1c2ncnn2C2(CCCCC2)[C@@H]2CCCC[C@@H]21	4.6	-0.2
COc1ccc(N(CC(=O)NCCc2ccc(Cl)cc2)S(=O)(=O)c2c(C)nn(C)c2C)cc1	11.1	-1.4
COc1ccccc1CCNC(=O)c1ccc2c(c1)c(C)c(C)n2C	7.3	2.4
COc1cc(Cl)c(C)cc1NC(=O)Cn1c2ncccc2c(=O)n1-c1ccccc1	8.6	-0.4
COc1ccc2[nH]cc(CCN=C(NC(=O)c3ccccc3OC)Nc3nc(C)cc(C)n3)c2c1	-10.4	3.0
The results go on.
SMILES	TRPML1 inh	TRPML1 ag
Nc1c(C(=O)Nc2ccc(F)c(F)c2)sc2nc(-c3ccncc3)ccc12	6.3	-0.4
Cc1cc(F)ccc1NCc1ccccc1-c1nnc(-c2ccccc2Cl)o1	16.3	0.0
Cc1cc(C)c2c(c1)c(C)cc1nnc(SCc3ccccc3C#N)n12	1.9	0.6
CCC(C)NC(=O)c1sc2nc(C)c(C(=O)Nc3ccc(C)cc3C)c(-c3ccc(Cl)cc3)c2c1N (stereo not given)	19.2	-0.1
COc1cc(OC)c(OC)cc1CN1CCc2nc(N3CCN(C)CC3)ncc2C1	16.2	0.6
CCOc1ccc(C(=O)N2CCC(c3ccncc3)CC2)cc1	2.5	-0.7
CCCCNC(=O)c1sc2ncccc2c1-n1cccc1	-17.8	0.9
CCCn1c(=O)c2sccc2n2c(CCCC(=O)NCCOC)nnc12	-16.1	0.5
COC(=O)c1ccc2c(=O)n(CCCCCC(=O)NCc3ccc(Cl)cc3)c(=O)[nH]c2c1	-12.4	1.1
CCCOc1ccc(C(=O)Nc2ccc3oc(-c4ccc5ccccc5c4)nc3c2)cc1	-13.2	-0.1
Cc1cccc(-c2nc(-c3ccc4c(c3)[nH]c(=O)n4C)no2)c1	7.7	1.1
Cc1ccc(SCc2nc(-c3ccc(C(=O)NCc4ccccc4Cl)cc3)oc2C)cc1	-14.3	-0.3
O=C(CCCCCn1c(=O)[nH]c2ccccc2c1=O)NCc1ccc(Cl)cc1	3.0	0.4
COc1ccc(CNC(=O)Cn2c(SCC(=O)N(C)c3ccccc3)nc3ccccc32)cc1	2.0	0.4
Cc1cc(C)cc(NC(=O)CN(C)S(=O)(=O)c2ccc3[nH]c4c(c3c2)CCCC4)c1	20.9	2.3
O=C(Nc1ccc2oc(-c3cccnc3)nc2c1)c1cccc(Br)c1	31.4	-0.9
Cc1cc(-c2ccc(S(=O)(=O)Nc3ccc(Br)c(C)c3)s2)on1	-19.7	10.9
Cc1oc(C)c2c(=O)cc(-c3ccc4c(c3)OCO4)cc(OC(=O)c3ccc(Cl)cc3)c12	7.9	0.9
Cc1c(C(=O)Nc2cccc(C(F)(F)F)c2)oc2ccc(S(=O)(=O)N(C)C3CCCCC3)cc12	-4.1	-0.4
Cc1cc(C)c(NC(=O)CSc2nc(=O)n(Cc3ccco3)c3c2CCC3)c(C)c1	3.6	-0.3
COc1cccc(CNC(=O)c2cc3n(n2)CCCN(Cc2ccc(C)cc2)C3=O)c1OC	6.3	1.3
Cc1ccccc1C(=O)Nc1nc2c(s1)CC(C(C)(C)C)CC2 (stereo not given)	-24.8	-0.7
O=C(Nc1c(C(=O)Nc2ccc(F)cc2)oc2ccccc12)c1cc2ccccc2o1	20.7	1.3
COc1ccc(-c2cc(C(=O)Oc3cccc(C)c3)c3cc(C)ccc3n2)cc1	-7.3	0.2
CCN1C(=O)c2ccccc2Sc2ccc(NC(=O)Nc3cccc([N+](=O)[O-])c3C)cc21	0.0	-0.4
Other compounds
SMILES	TRPML1 inh	TRPML1 ag
COc1ccc(-c2ccc(OC)c(C3C4C=CCC(C)C4C(=O)N3Cc3ccccc3)c2)cc1 (stereo not given)	-1.7	0.7
COc1cc(OC)cc(-c2nc3nc(C)c(CCC(=O)Nc4cc(F)ccc4F)c(C)n3n2)c1	-13.4	-0.4
O=C(NCC1CCN(Cc2cccc(Cl)c2)CC1)Nc1cc(Cl)ccc1Cl	-5.9	1.6
COc1cc(NC(=O)c2cn(C3CCCC3)c(=O)c3c2c2ccccc2n3C)cc(OC)c1OC	6.0	1.4
Cc1ccc(C)c(N2CCN(C(=O)NCc3noc4ccc(C)cc34)CC2)c1	1.9	2.3
CCc1cccc(CC)c1NC(=O)Cc1csc(C)n1	32.4	2.7
Cc1nc(-c2ccccc2)sc1CCNC(=O)C(=O)Nc1ccc(F)c(Cl)c1	24.5	2.4
Cc1c(Cl)cccc1Nc1nc2ccc(C(=O)c3ccccc3)cc2n2cnnc12	1.3	0.8
O=C(CSc1nc2c(c(=O)[nH]1)CCCC2)Nc1ccccc1C(F)(F)F	26.0	2.5

As a short view, part of the list above:
SMILES	TRPML1 inh	TRPML1 ag
Cc1nn(CCCC(=O)NCc2ccc(OC(C)C)cc2)c(=O)c2c1sc1ccccc12	19.8	2.2
Cc1noc(-c2ccc(NC(C)c3ccccc3)c([N+](=O)[O-])c2)n1 (stereo not given)	5.6	0.0
Cc1onc(-c2ccccc2Cl)c1C(=O)Oc1ccc(Br)cc1	4.1	-0.2
Cc1ccc(-n2c(=O)c3c4c(sc3n(CC(=O)c3ccc(Cl)cc3)c2=O)CCC4)cc1C	-21.2	-0.8
CCn1cc(S(=O)(=O)c2ccc(Cl)cc2)c(=O)c2cc(F)c(N3CCOCC3)cc21	-11.3	-0.2
COc1ccc(CNC(=O)c2cc(Nc3ccccc3C)nc3ccccc23)cc1	3.8	1.4
COc1ccccc1OC(C)C(=O)Nc1c(C(=O)c2ccc(Cl)cc2)oc2ccccc12 (stereo not given)	-6.5	0.2
Cc1cc(C)cc(OCC(=O)N(Cc2cccs2)c2ccc(Cl)cc2)c1	-17.4	0.4
COc1ccccc1C(=O)NC1=NC(c2ccc(Br)cc2)CC(=O)N1 (stereo not given)	18.7	0.4
Cc1cc(F)ccc1NC(=O)c1c(C)oc2c1C1=NCCN1C=N2	-17.2	0.3
Cc1nc2ccn(Cc3ccco3)c(=O)c2cc1C(=O)N1CCN(c2ccc(F)cc2)CC1	-11.4	1.1
Cc1cccc(N2CCN(C(=O)c3cc4ccc5cccnc5c4[nH]3)CC2C)c1 (stereo not given)	-3.1	1.1
Cc1ccc(C(=O)c2cn(CC(=O)NCc3ccccc3Cl)c3nc(C)ccc3c2=O)cc1	6.0	0.6
Cc1ccc(CNC(=O)c2ccc3c(O)c(S(=O)(=O)c4ccc(Cl)cc4)c(=O)[nH]c3c2)cc1	-2.2	-0.1
CCN1CCN(C(=O)c2ccc3c(c2)N(Cc2c(F)cccc2Cl)C(=O)c2ccccc2S3)CC1	26.8	-0.6
CCOc1ccc(-c2cc3nc(C4CCN(C(=O)OC(C)(C)C)CC4)c(C(=O)Nc4cccc(C(F)(F)F)c4)cn3n2)cc1	22.7	-0.6
CCOC(=O)c1ccc(NC(=O)c2cn3c4c(ccc(Cl)c4c2=O)OC(C)C3)cc1 (stereo not given)	-5.3	-0.5
CCCCNC(=O)CSc1nc2ccccc2nc1Cc1ccccc1	10.8	1.6
COCCOC(=O)N1CCN(/[N+]([O-])=N/Oc2ccc([N+](=O)[O-])cc2[N+](=O)[O-])CC1	-3.5	2.5
COc1ccc(CNC(=O)c2ccc3c(c2)CCN3S(=O)(=O)c2ccccc2)cc1	-6.4	-0.2
COC(=O)c1ccc2c(c1)N(CC(=O)Nc1ccc(C)c(C)c1)C(=O)c1ccccc1S2	-8.5	4.5

Source: PubChem BioAssay
